Screening data (PubChem BioAssay)
Calb FLC: C. albicans growth modulation with fluconazole; growth inhibition, % (concentration not given with the values); AID 1979; actives 0.57% (n = 300,000); C. albicans CaCi-2 (fluconazole-resistant clinical isolate) + fluconazole, Alamar Blue growth, 48 h;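 active = most replicates above 75%; inconclusive = exactly half above 75%; inactive = most below 75%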;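 also: all wells also contain fluconazole at 8 µg/ml as a sub-toxic cotreatment; 0% = median of DMSO wells and 100% = median of geldanamycin control wells; wells of about 8 µL received 7.5 nL stock; the first replicate is given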
AF4-AF9 inh: inhibitors of human MLL-AF4/AF9 interaction; P42568; AlphaScreen, biotin-AF4 peptide binding to FLAG-AF9; inhibition, % at 10 µM; actives 0.47% (n = 350,000); AID 651704;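 active = every replicate reaching a set inhibition limit, whatever the replicate mean, cut at about 25% in these data; inconclusive = mean inhibition reaches that limit but some replicates miss it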;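 also: 0% = plate neutral control median and 100% = total signal loss; the record names both 10 and 1 µM as test concentration; the first replicate is given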
T cruzi repl: T. cruzi replication inhibition; T. cruzi beta-gal in NIH3T3, luminescence, 90 h; inhibition, % (concentration not given with the values); actives 1.4% (n = 300,000); AID 1885;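 active = mean inhibition across valid replicates above about 55%, limit read from the data; inconclusive = mean below that limit but half or more replicates reach it; inactive = mean below it, under half of replicates reach it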;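 also: signal also drops with host cell toxicity which is not excluded here; 0% = plate median of DMSO wells and 100% = zero luminescence signal; higher percent means less beta-gal luminescence so fewer parasites; stock transfer was 50 nL into about 50 µL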
Bfl-1 A1 inh: inhibitors of the anti-apoptotic protein A1, read as caspase activation; MEF A1-2A-BIM cells, Caspase-Glo 3/7 luminescence, 3 h; percent of clofoctol response, vehicle zero; caspase activation, % (no concentration beside the values); actives 0.066% (n = 330,000); AID 2462;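 active = over half of replicate activation scores above 10%, or exactly half above 10 with the replicate mean above 10; inconclusive = replicate mean below 10 yet half the replicates above 10; inactive = over half of replicates below 10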;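 also: wells of about 30 µL received 50 nL stock; many hits fall short of the cut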
Vif TR-FRET: inhibitors of Vif binding to APOBEC3G peptide, primary screen, biochemical, TR-FRET, GST-Vif 1-94, biotin-A3G peptide, dose response retest (AID 1117319); TR-FRET GST-Vif / biotin-A3G peptide binding; higher % means a stronger effect; test concentration not given here; strong numbers were not always called active; inhibition, %; hits with a dose series show IC50 in µM; actives 0.57% (n = 260,000);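 active = above the screen mean plus three standard deviations and confirmed in dose response; inconclusive = results disagree or hit not tested in dose response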;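 also: Vif residues 1-94 fused to GST binding biotinylated APOBEC3G peptide 110-148; 0% = full assay without inhibitor and 100% = GST in place of GST-Vif; retest series ran down from 100 µM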
LANA-H2B inh: blocks KSHV LANA binding to histone H2A/H2B. inhibition, % (no concentration beside the values). cell-free LANA-H2A/H2B peptide, fluorescence polarization. actives 0.6% (n = 320,000); in the data active = inhibition mostly above about 10%, no sharp cut-off; inactive = mostly below about 6.7%;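 also: stock transfer was 7.5 nL into about 10 µL; 0% = median of vehicle wells and 100% = median of positive control wells; one replicate is shown; the record names a cut of 25% in any replicate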
Target sequence (Q9QR71 whole entry, looked up): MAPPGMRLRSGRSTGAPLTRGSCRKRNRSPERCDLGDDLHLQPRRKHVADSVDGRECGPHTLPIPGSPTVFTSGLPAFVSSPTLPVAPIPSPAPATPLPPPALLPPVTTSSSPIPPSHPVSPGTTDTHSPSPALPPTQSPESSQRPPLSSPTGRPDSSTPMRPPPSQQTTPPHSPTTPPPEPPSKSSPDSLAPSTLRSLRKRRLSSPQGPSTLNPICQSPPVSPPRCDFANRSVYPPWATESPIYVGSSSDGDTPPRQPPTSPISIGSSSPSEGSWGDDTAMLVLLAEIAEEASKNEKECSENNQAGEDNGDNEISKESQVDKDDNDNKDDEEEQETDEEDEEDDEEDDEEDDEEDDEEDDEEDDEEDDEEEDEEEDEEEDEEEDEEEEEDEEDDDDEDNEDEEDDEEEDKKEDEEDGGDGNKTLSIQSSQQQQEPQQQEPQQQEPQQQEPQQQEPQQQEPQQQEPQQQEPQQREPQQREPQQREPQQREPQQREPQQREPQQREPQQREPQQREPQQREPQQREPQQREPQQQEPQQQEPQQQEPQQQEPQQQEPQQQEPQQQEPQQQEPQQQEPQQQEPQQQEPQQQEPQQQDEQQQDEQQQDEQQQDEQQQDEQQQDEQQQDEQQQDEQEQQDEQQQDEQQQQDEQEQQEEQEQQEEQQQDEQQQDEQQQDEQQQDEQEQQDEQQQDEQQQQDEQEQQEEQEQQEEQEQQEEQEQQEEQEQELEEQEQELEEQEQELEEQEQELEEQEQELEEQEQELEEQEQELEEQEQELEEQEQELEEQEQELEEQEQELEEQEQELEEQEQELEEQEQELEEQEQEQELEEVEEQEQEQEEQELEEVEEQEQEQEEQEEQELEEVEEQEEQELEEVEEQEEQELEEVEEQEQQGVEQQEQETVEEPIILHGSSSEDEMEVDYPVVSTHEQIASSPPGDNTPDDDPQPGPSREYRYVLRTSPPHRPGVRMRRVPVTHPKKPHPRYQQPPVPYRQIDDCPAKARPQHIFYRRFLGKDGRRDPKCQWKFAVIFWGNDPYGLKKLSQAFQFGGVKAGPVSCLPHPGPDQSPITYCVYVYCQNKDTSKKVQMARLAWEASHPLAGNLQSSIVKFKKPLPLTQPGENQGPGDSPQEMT
Beta cell apopt: beta cell apoptosis inhibition; protection from apoptosis, % (no concentration beside the values); INS-1E cytokine-induced death, ATP luminescence, 48 h; percent of positive-control rescue, neutral wells zero; actives 0.8% (n = 300,000);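 active = all replicates at 75% or more, or half of them and the mean; inconclusive = half reach 75% but not the mean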;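 also: 0% = cytokine-treated negative control wells and 100% = positive control rescue; higher means more ATP so stronger rescue from cytokine killing; wells of about 40 µL received 100 nL stock; the first replicate is given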
RanGTP-Impb inh: inhibitors of RanGTP-importin-beta interaction, primary screen, biochemical, FRET, CFP-Ran, YFP-importin-beta, homogeneous. cell-free CFP-Ran/YFP-importin-beta FRET ratio. inhibition, % (no concentration beside the values). actives 1.1% (n = 300,000);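 active = most replicates above 15%; inconclusive = exactly half above 15%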;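 also: 0% = DMSO wells and 100% = Ran loaded with GDP instead of GTP; wells of about 40 µL received 100 nL stock; the first replicate is given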
* hit, by the source's call; ? = inconclusive; . = no result given.

molecule,Calb FLC,AF4-AF9 inh,T cruzi repl,Bfl-1 A1 inh,Vif TR-FRET,LANA-H2B inh,Beta cell apopt,RanGTP-Impb inh
Cc1ccsc1C(=O)N1CCCC(N(C)Cc2ccccc2)C1 (stereo not given),-7,-2.7,-1,-0.8,.,-1.7,0,1.3
N[C@@H](Cc1ccc(O)cc1)c1nnc([C@H](CC(=O)O)NC(=O)C2CCNCC2)o1,2,-1.2,-27,-0.2,.,-3.6,0,-6.6
O=C(Nc1ccc(S(=O)(=O)N2CCC(C(=O)NC3CCCCC3)CC2)cc1)c1ccco1,-2,.,11,0.1,-3%,3.8,-1,0.5
CCC(Oc1cc(Cl)ccc1Cl)C(=O)NN1C(=O)C2C3CCC(C3=C(C)C)C2C1=O (stereo not given),-1,.,14,-0.9,-3%,0.8,9,-1.0
CCCOc1ccc(S(=O)(=O)NCc2ccc(OC)cc2)cc1,-2,.,0,-0.5,-2%,-4.6,1,1.6
CCc1ccc(OCC(=O)NNC(=O)C2CCN(c3ncnc4sc(C)c(C)c34)CC2)cc1,-8,0.1,0,0.9,2%,3.4,.,-0.9
CC(C)(C)OC(=O)N1CCC[C@H]1c1nnc(SCc2c(F)cccc2Cl)o1,-8,.,1,0.5,5%,-1.5,-5,2.9
CCc1ccc(/C(C)=N/NC(=O)CNC(=O)/C=C/c2ccco2)cc1,6,.,-8,0.4,.,0.7,-1,1.8
Cc1cc(NC(=O)c2ccccc2)sc1C,-6,.,-13,-13,7%,1.2,20,-3.3
CCOC(=O)C1CCN(c2ccccc2CN2CCN(c3ccccc3OCC)CC2)CC1,-34,.,1,0.5,-10%,-5.8,-3,3.4
CCN(CC)c1ccc(-n2c(O)c(C=C3N=c4ccccc4=N3)sc2=S)cc1,-9,.,1,0.3,.,3.8,3,3.4
CC(=O)Oc1ccccc1C(=O)O,.,-1.2,0,0.4,.,-1.2,-5,-1.2
COc1cc(C(=O)OCC(=O)NC2CC2)cc(OC)c1OC,.,-1.3,.,-1.3,-5%,-3.1,-7,.
C/C=C(\C)CN1CCC(Oc2cc(C(=O)NC3CC3)ccc2OC)CC1,2,1.2,2,0.4,10%,1.7,-2,1.3
O=C(N/N=C/c1ccc(Cl)s1)c1ccccc1[N+](=O)[O-],-3,9.0,-15,-0.3,11%,-4.2,2,-1.4
CCCOc1cc(N(CC)CC)ccc1/C=C(/C#N)c1nc2ccc(C)cc2[nH]1,5,-59,64*,-0.2,22%,0.1,45,-107
COc1ccc(CCNC(=O)C2CCN(S(=O)(=O)c3cnc[nH]3)CC2)cc1OC,8,.,-12,0.1,26%,0.1,0,-2.3
COC(=O)c1ccc(OCC(O)CN2CCC(C)CC2)cc1 (stereo not given),0,3.0,-10,-0.6,1%,-8.3,.,-2.0
COc1ccc2c(C)nc(Nc3nc(C)cc(C)n3)nc2c1,9,.,4,0.2,2%,0.8,2,-1.0
Cn1ccnc1SCC(=O)Nc1cccc(C#N)c1,.,-1.2,.,-0.1,.,-2.3,2,.
O=C(NC(=O)c1csnn1)Nc1ccccc1Cl,13,-1.2,-9,-0.7,-2%,5.0,-4,5.1
O=C(c1ccco1)N1CCN(C(=O)c2ccccc2Oc2ccccc2)CC1,10,10,0,0.4,11%,-1.6,-1,5.4
C/C(=N\NC(=O)c1c(Cl)c(C)nn1C)c1cccc(NC(=O)COc2ccc(Cl)cc2)c1,1,.,22,-1.1,3%,1.6,0,1.2
COc1ccc([N+](=O)[O-])cc1NC(=O)c1cc(C)c(C)o1,2,1.9,-3,0.0,0%,-0.4,-2,-0.9
CC(C(=O)Nc1nc2ccccc2s1)n1cc([N+](=O)[O-])cn1 (stereo not given),-1,-0.8,-2,0.7,-7%,4.4,2,-1.2
Cn1c(C(=O)O)c(CC(=O)Nc2ccccc2F)c2ccccc21,1,.,5,0.9,10%,-0.8,-4,2.9
CCc1nccn1S(=O)(=O)c1ccc(C)c(C)c1,-6,.,-11,0.3,8%,-2.8,-3,-0.1
CCOC(=O)/C=C(/C)N1N=C(c2ccc(OC)cc2)CC1c1cccc([N+](=O)[O-])c1 (stereo not given),0,.,6,0.1,-3%,-0.9,4,6.7
Cc1cccc(C)c1NC(=O)CN(C)C(=O)C(c1ccccc1)c1ccccc1,8,-2.3,-10,-0.1,.,-1.1,-2,5.8
Brc1ccc(CNc2cc3c(cc2Br)OCCO3)cc1,-12,13,3,1.3,-13%,0.3,-3,1.4
CSc1cc(/C=N/O)c(SC)s1,-6,.,-7,-0.2,3%,0.2,0,2.1
CS(=O)(=O)N1CCC2(CC1)OCCN2S(=O)(=O)c1ccccc1,-5,-14,-8,2.6,4%,2.3,0,-2.1
COc1ccc(CN(C)CC(=O)NC(C)c2ccccc2)cc1OC (stereo not given),-12,0.9,1,-0.6,3%,-138,-5,6.7
COc1ccc(CCNCCC(=O)Nc2c(C)cc(C)cc2C)cc1OC,-5,.,27,-0.1,0%,0.7,-1,-4.8
CC1CCC(CN2CCN=C2N(C)C)CC1 (stereo not given),.,-9.3,.,-0.1,.,-2.5,3,.
COc1ccccc1-c1ocnc1C(=O)N1CCN(S(=O)(=O)c2ccc(NC(C)=O)cc2)CC1,-6,6.9,7,-1.1,.,-6.3,0,-0.7
CS(=O)(=O)N(CCc1ccccc1)CC(=O)NCc1cccnc1,1,.,7,0.1,6%,-2.9,-5,0.0
COC(=O)c1ccccc1NC(=O)C(=O)NCc1ccncc1,2,1.0,-12,-0.2,0%,3.2,-2,0.6
CCOC(=O)c1cc(OC(=O)c2cccs2)n(-c2ccccc2)n1,.,6.0,.,-0.8,22%,-1.6,2,.
COc1ccc(-c2cc(Cl)cc3c(=O)c4ccccc4n(C)c23)cc1F,8,-75,-1,1.0,.,6.8,1,112*
O=C(O)CCCC(=O)N1N=C(c2ccccc2)CC1c1ccc2c(c1)OCO2 (stereo not given),5,0.8,-1,-0.4,.,-1.3,-8,0.8
CCCCN1C(=S)NC[C@@H]1Cc1ccccc1,-13,-0.3,-36,-2.9,-5%,-2.0,-4,-6.5
Cc1ccc(S(=O)(=O)NN2C(=O)/C(=C/c3ccc(C(=O)O)cc3)SC2=S)cc1,3,-4.9,4,0.5,0%,0.0,2,9.4
Cc1cc(O)cc(O)c1C(=O)Cc1cscn1,1,.,-4,-0.6,9%,-2.9,-3,-0.3
CCN1C(=O)/C(=C2/Sc3ccc(OC)cc3N2C)SC1=Nc1ccc(OC)cc1,-4,-18,10,-0.5,-2%,-0.6,-2,-2.9
Cc1nnc(SCC2=C(C(=O)O)N3C(=O)C(NC(=O)Cn4nc(C)c(Cl)c4C)C3SC2)s1 (stereo not given),66,-1.5,-10,0.0,32%,4.0,-8,-0.1
CCN(CC)C(=O)CSc1nc2ccc(NC(=O)CSc3nccn3C)cc2s1,-13,.,11,-0.4,15%,1.5,-10,0.9
CC(=O)c1ccc(N2CCN(C(=O)C3CCC3)CC2)cc1,-2,.,-1,-0.8,77%,-2.6,-3,6.4
O=c1c2ccccc2c(C=Nc2ccc(S(=O)(=O)N3CCCCC3)cc2)c(O)n1-c1ccc(Cl)cn1,-4,.,1,0.8,16%,1.4,0,-9.1
Cc1ccc(N2C(=O)C3C4C=CC(C4)C3C2=O)cc1C (stereo not given),26,.,-6,1.2,20%,2.6,-2,3.6

Going on with the list.
molecule,Calb FLC,AF4-AF9 inh,T cruzi repl,Bfl-1 A1 inh,Vif TR-FRET,LANA-H2B inh,Beta cell apopt,RanGTP-Impb inh
O=c1[nH]c(C2CCN(S(=O)(=O)c3ccccc3)CC2)nc2c1nnn2Cc1ccc2c(c1)OCCO2,-2,-6.7,-2,-0.5,2%,-2.3,-6,0.0
O=c1c2ccccc2nc(-c2ccc([N+](=O)[O-])cc2)n1O,61,3.0,-3,-0.2,.,2.3,5,5.1
COc1cc(C(=O)NCc2nnc(SCC(=O)Nc3cc(C)cc(C)c3)o2)cc(OC)c1OC,2,.,-10,0.4,14%,-3.7,-6,2.2
CCC1(CC)C(=O)N=C2c3ccccc3C(=O)N21,-10,.,-27,0.2,-8%,-4.9,-13,-3.4
CCCc1nnc(NC(=O)OCC)s1,-12,-0.2,-6,1.0,.,0.7,.,-0.7
CCN(CC)C(=O)Oc1ccc2c(=O)c(-c3ccccc3)coc2c1,-7,.,25,-5.8,6%,0.2,8,-1.1
Oc1ccc2n[nH]nc2c1,1,.,-11,-0.3,?,-1.6,-3,-3.9
COc1cccc(NC(=O)N(CCCN2CCOCC2)C(C)c2cc3ccccc3o2)c1 (stereo not given),4,-1.3,19,-0.5,2%,3.8,-4,0.3
CCN1C(=O)C2C(c3cccc(F)c3)NC(CC)(C(=O)OC)C2C1=O (stereo not given),21,.,-6,1.5,-1%,0.4,-1,-4.3
Cc1ncsc1CCOC(=O)c1cccnc1,5,0.3,-10,1.1,24%,0.5,-1,7.8
COc1cc(N2C(=O)C=CC2=O)c(OC)cc1Cl,7,2.4,16,1.1,0%,5.3,14,?
O=C(N/N=C/c1ccc2c(c1)OCO2)c1ccc2ccccc2n1,-10,-6.3,47,-0.3,22%,1.8,0,-1.9
CCOC(=O)Cn1nc(/C=C/c2ccccc2)ccc1=O,6,.,-15,0.3,6%,-3.7,-9,3.0
CC(C)CCNC(=O)C1CCN(S(=O)(=O)c2ccc3c(c2)CC(C)N3C(=O)C2CC2)CC1 (stereo not given),-3,-1.6,-20,0.6,3%,-2.2,9,-0.1
COc1ccc(NC(=O)NCc2ccco2)cc1OC,4,1.0,-11,1.5,.,6.5,-5,0.8
COc1ncnc2c1NC1=C(S2)C(=NCCC(=O)O)CC(C)(C)C1,10,.,-16,-0.4,2%,5.4,-1,-3.1
COc1ccc(NS(=O)(=O)c2cc(NC(=O)c3nc4nc(C)cc(C)n4n3)ccc2C)cc1,-22,0.6,.,2.9,5%,0.5,-2,.
N#CC1=C(N)N=C(SCc2ccccc2)C(C(N)=O)C12CCCCC2 (stereo not given),-9,.,3,-0.1,3%,-1.2,-2,-1.1
COC(=O)CSc1nc2ccc(NC(=O)c3ccccc3C(=O)N3CCOCC3)cc2s1,-4,.,-2,-0.3,.,4.6,1,-1.3
Cc1ccccc1CN1N=C(/C=C/c2ccccc2)CCC1=O,16,-1.3,7,0.4,-7%,-1.8,-4,?
CCC(=O)NC(=S)Nc1ccccc1F,-18,.,-1,0.4,4%,-3.7,-5,6.2
COc1ccc(N(CC(=O)N/N=C/c2cccc(OC)c2OC)S(=O)(=O)c2ccccc2)cc1,-6,4.9,-8,0.5,-4%,-6.0,1,?
C=CCSc1nc(-c2ccc(OC)cc2)c(C#N)c(=O)n1CC=C,20,-12,29,.,-7%,.,.,-0.2
Cc1ccc(C)c(N2CCN(C(=O)C3CCCN(S(=O)(=O)c4c(C)[nH]c(=O)[nH]c4=O)C3)CC2)c1 (stereo not given),10,.,5,0.3,3%,3.8,1,6.5
CCCCOc1ccc(C(=O)NCc2ccco2)cc1,4,.,5,-1.3,7%,-6.3,1,0.8
